HPGD block – inhibitors of human 15-hydroxyprostaglandin dehydrogenase (HPGD); P15428; purified HPGD, NADH fluorescence kinetic, PGE2 substrate; Potency, µM, without a hit: at the top dose activity change, negative = inhibition, hits mostly inhibitors; 150,000 tested, 4.3% active; active = well fitted inhibition curve with a large enough effect (not every such curve was filed as active); inconclusive = small, poorly fitted or top-dose-only effect, or another doubt; inactive = no such curve, though single readings can be large or run the other way;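 also: top concentration of the series not given in the record; plate controls included wells without enzyme; inactives centre near -10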
Target sequence (P15428 whole entry, looked up): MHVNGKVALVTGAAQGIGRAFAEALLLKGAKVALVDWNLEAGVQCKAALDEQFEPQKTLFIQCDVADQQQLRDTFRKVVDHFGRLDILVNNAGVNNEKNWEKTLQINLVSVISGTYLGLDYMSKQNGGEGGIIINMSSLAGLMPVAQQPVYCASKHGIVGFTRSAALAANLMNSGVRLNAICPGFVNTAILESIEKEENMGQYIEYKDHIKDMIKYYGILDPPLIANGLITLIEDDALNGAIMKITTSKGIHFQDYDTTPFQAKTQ
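NADH formation kinetics: reaction with 30 uM PGE2 and 1 mM NAD+ (final), 20 nM enzyme, Tris-HCl pH 8 with Tween 20, after 15 min compound preincubation at room temperature. Fluorescence change, last versus first of five reads.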
The depositor's hits bear a star; ? = inconclusive; ! = a repeat was not active. % is scaled to controls: 0 for no effect and ±100 for the full control effect; potency is read from the fitted curve at half-maximal effect. Some of the compounds tested, so the mix of outcomes need not match the whole.

HPGD block | Compound
-8.3% | S=C(Nc1ccccc1)c1nc2ccccc2s1
-23.8% | O=S(CC1CC1(Cl)Cl)CC1CC1(Cl)Cl (stereo not given)
-5.4% | CC(=O)c1ccc(NC(=O)Nc2ccc([N+](=O)[O-])cc2)cc1
-16.1% | O=[N+]([O-])c1ccc2nnn(O)c2c1
? | CCn1c(=NC(=O)CN2C(=O)CCC2=O)sc2c(OC)ccc(OC)c21
-21.5% | COC(=O)c1ccc(NC(=O)CN(C)S(=O)(=O)c2ccc(OC)c(C)c2)cc1
-16.9% | Cc1ccnc(N/N=C/c2ccccc2)n1
-6.8% | CNS(=O)(=O)c1cccc(C(=O)OC2CCCCC2=O)c1 (stereo not given)
0.1% | Cc1cc(C)n(-c2nc3ccccc3nc2N2CCN(C(=O)c3ccccc3)CC2)n1
-11.2% | COc1ccc(C(=O)Nc2ccncc2)cc1OC
-21.7% | CCN1C(=O)/C(=C/c2cccs2)N(C)C1=S
-10.9% | O=c1c(-c2ccc(Cl)cc2)nc2cncnc2n1Cc1ccccc1Cl
-6.2% | COc1ccc(C(=O)COC(=O)C(CCSC)NS(=O)(=O)c2ccc(Cl)cc2)cc1 (stereo not given)
-15.7% | O=C(c1ccccc1)c1ccc(OCC(O)CN2CCCCC2)cc1 (stereo not given)
? | C=C(C)C1COc2cc3oc(=O)ccc3cc2O1 (stereo not given)
-27.2% | S=c1[nH]nc(Cc2sc(-c3ccccc3)nc2-c2ccccc2)o1
-18.6% | CC1Cc2ccccc2N1C(=O)Cn1cc([N+](=O)[O-])cn1 (stereo not given)
? | COc1ccc(-c2nc(CSCC(=O)NC3CCCc4ccccc43)c(C)o2)cc1OC (stereo not given)
-17.4% | CCS(=O)(=O)c1ccc(O)c(NC(=O)c2cc(OC)c(OC)c(OC)c2)c1
-17.9% | CN(C)c1ccc(C2NCCS2)cc1 (stereo not given)
14.1µM* | O=C(c1ccccc1Cl)N1CCC(c2nc3c(nnn3Cc3ccco3)c(=O)[nH]2)CC1
-13.6% | CCc1ccc(N(C(=O)c2csnn2)C(C(=O)NCc2ccccc2)c2ccco2)cc1 (stereo not given)
-6.7% | CC(NC(=O)c1ccccc1Cl)C(=O)O (stereo not given)
-4.9% | CCCN1CCN(C(=O)Cn2c(=O)oc3cc(S(=O)(=O)NCc4ccccc4)ccc32)CC1
28.2µM* | CCCc1cc(C(=O)Nc2sc3c(c2C#N)CCC3)no1
-7.7% | Cn1c(SCCOc2ccc(Cl)cc2)nnc1-c1ccncc1
-18.1% | C=CCNCCCOc1ccc(C)cc1Br
-13.4% | COc1ccc(NC(=O)C(=O)NCc2ccncc2)c(OC)c1
-10.6% | Cc1ccc(-c2ccc(S(=O)(=O)N3CCN(C)CC3)cc2)cc1
-12.3% | CCN(CC)CCCCn1c(-c2ccccc2)nc2c(Nc3ccccc3)nc(C)nc21
-13.2% | O=C(NC(=S)Nc1cc(C(F)(F)F)ccc1N1CCOCC1)c1sc2ccccc2c1Cl
-15.9% | O=C(c1cc(=O)c2ccccc2o1)N1CCCc2ccccc21

Quoted at random: 6 records from the list, in no set order.
HPGD block | Compound
-10.6% | Cc1ccc(-c2ccc(S(=O)(=O)N3CCN(C)CC3)cc2)cc1
-18.1% | C=CCNCCCOc1ccc(C)cc1Br
-15.9% | O=C(c1cc(=O)c2ccccc2o1)N1CCCc2ccccc21
-13.2% | O=C(NC(=S)Nc1cc(C(F)(F)F)ccc1N1CCOCC1)c1sc2ccccc2c1Cl
-7.7% | Cn1c(SCCOc2ccc(Cl)cc2)nnc1-c1ccncc1
28.2µM* | CCCc1cc(C(=O)Nc2sc3c(c2C#N)CCC3)no1

Continued.
HPGD block | Compound
? | COc1ccc(CCNC(=O)c2cnc3scc(C)n3c2=O)cc1OC
-24.1% | CC(C)OC(=O)c1cccc(-c2ccc(C=O)o2)c1
-10.1% | COc1ccc(OC(=O)c2cnn(-c3ccccc3)c2C)cc1
-3.5% | Fc1ccccc1-c1nc(N2CCCCC2)c2ccccc2n1
-15.9% | O=C(c1ccc(C#CC2(O)CCCCC2)cc1)N1CCN(C(c2ccccc2)c2ccccc2)CC1
-7.2% | Cc1nc(N2C(=O)C(=O)/C(=C(/O)c3ccccc3)C2c2ccco2)sc1C (stereo not given)
? | CS(=O)(=O)c1ccc(-c2cc(Br)sc2-c2ccc(F)cc2)cc1
-3.4% | CCOC(=O)C(C)Oc1ccc(C2NC(=O)NC(C)=C2C(C)=O)cc1Br (stereo not given)
-7.6% | CCCc1nnc(-c2ccc(OC)cc2)o1
? | CCOC(=O)CCn1c2nc(C)cc(C)c2c(=O)n1-c1ccccc1
-13.7% | CCOC(=O)N1CCN(C(=O)CCn2nc(-c3ccccc3)ccc2=O)CC1
-2.2% | O=C1CC(N2CCCc3ccccc32)C(=O)N1c1ccccc1 (stereo not given)
22.4µM*! | CC(=O)N1[C@H](Cc2ccccc2)C=C[C@]1(C)C(=O)NCc1ccc(C)o1
? | COc1cc2c(cc1NC(=O)c1cccc(S(=O)(=O)N(C)C)c1)oc1ccccc12
-22.9% | Cc1c(NC(=O)c2cc(-c3ccc(Cl)s3)nc3ccccc23)c(=O)n(-c2ccccc2)n1C
-7.7% | CC(=O)c1coc2ccc(OCC(=O)O)cc12
-14.9% | Cc1ccc(-c2cccc([C@H]3[C@@H]4C=CC[C@@H](C)[C@@H]4C(=O)N3Cc3ccccc3)c2)cc1
-1.9% | O=C(c1cnccn1)N1CCN(C/C=C/c2ccccc2)CC1
-11.2% | O=C(c1ccc(S(=O)(=O)N2CCOCC2)cc1)N(c1ccc(F)cc1)C1C=CS(=O)(=O)C1 (stereo not given)
? | CCn1c(SCc2nnc(-c3ccccc3)o2)nnc1-c1ccc(S(=O)(=O)N2CCCC2)cc1
? | CC1=C(C(=O)N2CCCCC2)C2(CCC(C)CC2)OC1=O (stereo not given)
-18.3% | COCC(C)NC(=O)Cc1ccc(F)cc1 (stereo not given)
0.3% | CCOc1ccc2nc(NC(=O)COC)sc2c1
-3.9% | O=C(Nc1ccccc1C(=O)NCc1cccnc1)c1ccc(Cl)cc1Cl

Already shown: entries from further up.
HPGD block | Compound
-18.3% | COCC(C)NC(=O)Cc1ccc(F)cc1 (stereo not given)
0.3% | CCOc1ccc2nc(NC(=O)COC)sc2c1
-3.9% | O=C(Nc1ccccc1C(=O)NCc1cccnc1)c1ccc(Cl)cc1Cl

(listing goes on)
HPGD block | Compound
-4.2% | CC(=O)NCCn1ccc2ccccc21
-9.9% | COc1ccc(-c2nc(-c3ccccc3)c(-c3cc([N+](=O)[O-])ccc3C)[nH]2)cc1O
-21.3% | COc1cc(Br)c(C(C)NC(=O)c2cccc(Br)c2)cc1OC (stereo not given)
-4.9% | CCCCn1c(SCn2nnc3ccccc3c2=O)nc2cc(C(=O)OC)ccc2c1=O
-2.4% | CCNc1nc(NC#N)nc(SCC(=O)OCC)n1
-7.5% | Cc1nc(-c2cccc(N)c2)cs1
-14.5% | COc1ccc(CCNC(=O)CN2CCC(C)CC2)cc1OC
28.2µM* | CC(Sc1ccccn1)C(=O)Nc1ccccc1 (stereo not given)

An excerpt from above in order of their number in HPGD block, high to low:
structure | HPGD block
CCCCn1c(SCn2nnc3ccccc3c2=O)nc2cc(C(=O)OC)ccc2c1=O | -4.9%
Cn1c(SCCOc2ccc(Cl)cc2)nnc1-c1ccncc1 | -7.7%
O=C(c1ccc(S(=O)(=O)N2CCOCC2)cc1)N(c1ccc(F)cc1)C1C=CS(=O)(=O)C1 (stereo not given) | -11.2%
CCS(=O)(=O)c1ccc(O)c(NC(=O)c2cc(OC)c(OC)c(OC)c2)c1 | -17.4%

(continued)
HPGD block | Compound
-21.1% | O=C(/C=C/c1ccccc1Cl)NCCc1ccc(F)cc1
? | O=C(COC(=O)/C=C/c1ccc2c(c1)OCO2)NC1CC1
-19.4% | C=CCNc1sc(C(=O)c2ccc(Br)s2)c(N)c1C#N
-12.7% | Cc1ccc(C2NC(c3ccc(C)cc3)C(C)C(=NO)C2C)cc1 (stereo not given)
-7.9% | COc1ccc(N2Cc3ccccc3C2=NC(=O)c2cccc([N+](=O)[O-])c2)cc1
-7.5% | COC(=O)c1cn(CC(=O)N2CCCCC2C)c2ccccc12 (stereo not given)
-12.5% | Cc1ccc(N(C)C(=O)N2CCN(S(=O)(=O)c3c(C)cc(C)cc3C)CC2)cc1
? | CCOC(=O)c1c(NC(=S)Nc2ccccc2)sc2c1CCN(CC)C2
? | N#Cc1ccsc1NC(=O)CSc1ncnc2ccccc12
15.8µM* | Cc1nn(-c2ccccc2)c(Cl)c1/C=N/Nc1ccc(S(=O)(=O)Nc2ccccc2C(=O)O)cc1[N+](=O)[O-]
-18.4% | CCCOc1ccc(C(=O)Nc2ccc(N(C)C)cc2)cc1
3.1% | CCOc1ccc(C2/C(=C(/O)c3ccc(Cl)cc3)C(=O)C(=O)N2CCCN(C)C)cc1OC (stereo not given)
-15.8% | Cc1nn(C)c(C(=O)NCc2ccc(Cl)cc2)c1Cl
-2.9% | CCOc1cc(NC(=S)NCC2CCCO2)c(OCC)cc1NC(=O)c1ccccc1C (stereo not given)
-25.7% | COc1ccc(/C=C2/SC(=S)N(n3c(C)ccc3C)C2=O)cc1
-11.1% | O=C(NNC(=O)c1cccnc1)Nc1cccc2ccccc12
-8.6% | O=C(Nc1ccccc1C(=O)N1CCOCC1)C1CC(=O)N(C2CCCC2)C1 (stereo not given)
-3.4% | CCc1ccc(NC(=O)N(CCN2CCOCC2)C2CCN(C(C)=O)CC2)cc1
? | CNC(=O)c1cc2cc(OC)ccc2n1CCN(Cc1ccccc1)Cc1ccccc1
-6.1% | Cc1cc(C)cc(NC(=O)CN2CCC(NC(=O)Cc3ccccc3)CC2)c1
-10.1% | O=c1c(-c2ccc(O)cc2)coc2cc(OC3OC(CO)C(O)C(O)C3O)ccc12 (stereo not given)
4.6% | CN(C)C(/C=C/Nc1ccc(F)cc1F)=C(C#N)C#N
? | COCCOC(=O)C1=C(C)N=c2s/c(=C\c3cccs3)c(=O)n2C1c1cccs1 (stereo not given)
-3.4% | CCOc1cccc(-c2nnc(SCC(=O)Nc3ccc(OC)c(OC)c3)n2N)c1
-2.1% | Cc1cc(/N=C/N(C)C)on1
-10.4% | CCOC(=O)c1ccc(NC(=S)Nc2ccccn2)cc1
-7.1% | Cc1c(C(=O)N2CCN(c3ccccn3)CC2)sc2ncnc(N3CCOCC3)c12
-1.6% | COC/C=C/C1=CC2=CC(=O)C(C)(OC(=O)c3cnc4ccccc4n3)C(=O)C2=CN1C1CCCC1 (stereo not given)
-6.2% | CC(OC(=O)c1ccc([N+](=O)[O-])s1)C(=O)Nc1ncc(Cl)cc1Cl (stereo not given)
? | Brc1ccc(-c2nc(N/N=C/c3cccnc3)c3ccccc3n2)cc1
-5.2% | O=C(CSc1nnc(CNc2ccc(F)cc2)n1Cc1ccccc1)NCc1ccco1
-8.8% | CCc1nnc(NC(=O)CSc2ncc(-c3ccccc3)n2C)s1
-11.4% | Cc1ccc(C(=O)Nc2nc(-c3ccc([N+](=O)[O-])cc3)cs2)o1
-5.0% | O=C(Cn1c(CC(=O)N2CCCC2)nc2ccccc21)NCc1ccccc1
? | Clc1cccc(Cl)c1CO/N=C/c1c(-c2ccccc2)nc2n1CCS2
-5.0% | Cn1c(=O)cc(SCC(=O)NCCN2CCN(c3ccccc3F)CC2)c2cc(Cl)ccc21
14.1µM* | COc1ccc(OCc2nn3c(Cn4cnc5ccccc54)nnc3s2)cc1
-3.9% | O=C(Nc1ccc(-c2nnco2)cc1)c1ccccc1
0.2% | O=C(CSc1nnc(-c2ccc(Cl)cc2Cl)n1C1CCCCC1)NC1CCS(=O)(=O)C1 (stereo not given)
-1.3% | CCn1c(CNc2ccc(F)cc2)nnc1SCCN1CCCCC1
-25.9% | O=C(NCCCn1ccnc1)c1cc2ccccc2oc1=O
-1.2% | CC(NC(=S)Nc1ccc(Cl)cc1)C(c1ccccc1)N1CCOCC1 (stereo not given)
-24.8% | Cc1c(C(=O)N2CCCC2)sc(NC(=O)c2cccs2)c1C#N
-26.0% | Cc1ccc(CNc2nc3ccc(C)cc3n3cnnc23)cc1
-7.3% | Cc1ccc(C(C)C)c2c1C(c1ccc3c(c1)OCO3)CC(=O)O2 (stereo not given)
-13.7% | CCc1nnc(NC(=O)c2cc3ccccc3oc2=O)s1
-12.5% | CCNc1nc(Sc2ccc(C)cc2)cc(C(F)(F)F)n1
-9.3% | CCCCN(C(=O)CSc1cc(C)c2ccc(OC)cc2n1)c1c(N)n(Cc2ccccc2)c(=O)[nH]c1=O
-4.5% | Cc1ccc2c(C(=O)CN3CCCC3)c(C)[nH]c2c1
-16.2% | O=C(O)C1CCCCC1C(=O)NCCCCc1ccccc1 (stereo not given)
-29.8% | COC(=O)c1ccccc1Sc1c(/C=N/OCc2ccc(Cl)cc2)c(C(F)(F)F)nn1C
-17.4% | CCc1c(C)nc(N2CCOCC2)[nH]c1=O
-21.0% | Cc1cc(C)nc(SCSc2nc(C)cc(C)n2)n1
-6.2% | Cc1ccc2nc(Nc3nc(-c4ccccc4)cc(=O)[nH]3)nc(C)c2c1
-19.7% | Oc1ccc(/C=N/Nc2cc(N3CCOCC3)nc(N3CCOCC3)n2)cc1O
-9.3% | CN(C)CCNC(=O)C1CC(=O)N(c2ccc(F)c(Cl)c2)C1 (stereo not given)

Other results:
HPGD block | Compound
-0.5% | CC(C)(C)CC(=O)Nc1nnc(C(F)(F)F)s1
-21.6% | O=C(CSC(=S)N1CCOCC1)Nc1nc(=O)c2ccccc2s1
-4.2% | O=C(OCCCc1ccncc1)c1ccc(S(=O)(=O)N2CCOCC2)cc1
0.0% | CCOC(=O)C1=C(N)OC2=C(C(=O)CCC2)C1c1cccs1 (stereo not given)
-21.6% | CCCOC(=O)CSc1nc(N)c(C#N)c(CC)c1C#N

Screening data from PubChem BioAssay.
